Screening results from PubChem.
LANA-H2B inh: blocks KSHV LANA binding to histone H2A/H2B. Q9QR71. cell-free LANA-H2A/H2B peptide, fluorescence polarization. inhibition, % (no concentration beside the values). 320,000 tested, 0.6% active; in the data active = inhibition mostly above about 10%, no sharp cut-off; inactive = mostly below about 6.7%;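 note: stock transfer was 7.5 nL into about 10 µL; 0% = median of vehicle wells and 100% = median of positive control wells; one replicate is shown; the record names a cut of 25% in any replicate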
HNF4A DNA FP: change in binding of human HNF4 alpha to DNA; activity change, % at 10 µM; HNF4a-FITC DNA binding, fluorescence polarization, 1 h; 360,000 tested, 0.3% active; AID 1224865; P41235; in the data active = activity change above about 30%, passing the limit was not always enough;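 note: controls were the assay level and a saturating level of protein; the project sought stronger binding though the title names inhibitors; some compounds called inactive have numbers as strong as hits; positive values seem to mean higher polarization but the record does not say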
Target sequence (P41235 whole entry, looked up): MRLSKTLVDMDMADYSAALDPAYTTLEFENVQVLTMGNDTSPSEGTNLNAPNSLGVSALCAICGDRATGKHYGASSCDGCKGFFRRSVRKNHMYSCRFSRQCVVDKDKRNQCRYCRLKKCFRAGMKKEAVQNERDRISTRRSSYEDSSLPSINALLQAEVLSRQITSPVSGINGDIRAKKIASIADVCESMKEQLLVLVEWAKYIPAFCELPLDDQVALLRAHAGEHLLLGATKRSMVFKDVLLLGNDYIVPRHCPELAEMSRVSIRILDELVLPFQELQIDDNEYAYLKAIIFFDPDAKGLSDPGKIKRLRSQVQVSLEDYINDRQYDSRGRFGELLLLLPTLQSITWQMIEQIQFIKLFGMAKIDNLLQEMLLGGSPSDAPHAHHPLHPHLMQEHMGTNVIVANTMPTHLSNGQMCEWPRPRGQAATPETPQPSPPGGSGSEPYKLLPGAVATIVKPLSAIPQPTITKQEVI
Calb FLC: affects C. albicans growth with fluconazole; 300,000 tested, 0.57% active; growth inhibition, % (test concentration not listed); C. albicans CaCi-2 (fluconazole-resistant clinical isolate) + fluconazole, Alamar Blue growth, 48 h;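 active = most replicates above 75%; inconclusive = exactly half above 75%; inactive = most below 75%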;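 note: all wells also contain fluconazole at 8 µg/ml as a sub-toxic cotreatment; 0% = median of DMSO wells and 100% = median of geldanamycin control wells; wells of about 8 µL received 7.5 nL stock; the first replicate is given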
Vif A3G: inhibitors of Vif binding to APOBEC3G peptide, primary screen, biochemical, TR-FRET, GST-Vif 1-94, biotin-A3G peptide, dose response retest (AID 1117319). TR-FRET GST-Vif / biotin-A3G peptide binding; higher % means a stronger effect; test concentration not given here; strong numbers were not always called active. inhibition, %, or IC50 in µM where a hit was titrated. 260,000 tested, 0.57% active;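 active = above the screen mean plus three standard deviations and confirmed in dose response; inconclusive = results disagree or hit not tested in dose response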;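 note: Vif residues 1-94 fused to GST binding biotinylated APOBEC3G peptide 110-148; 0% = full assay without inhibitor and 100% = GST in place of GST-Vif; retest series ran down from 100 µM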
ALR inh: inhibitors of human sulfhydryl oxidase ALR | P55789 | purified ALR, DTT oxidation, H2O2 HRP-luminol luminescence | inhibition, % (no concentration beside the values) | 290,000 tested, 3.8% active;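 active = mean and each replicate at 75% or more; inconclusive = only one of the two met; inactive = neither met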;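 note: stock transfer was 7.5 nL into about 7.5 µL; 0% = neutral wells and 100% = wells with inactivated enzyme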
Target sequence (P55789 whole entry, looked up): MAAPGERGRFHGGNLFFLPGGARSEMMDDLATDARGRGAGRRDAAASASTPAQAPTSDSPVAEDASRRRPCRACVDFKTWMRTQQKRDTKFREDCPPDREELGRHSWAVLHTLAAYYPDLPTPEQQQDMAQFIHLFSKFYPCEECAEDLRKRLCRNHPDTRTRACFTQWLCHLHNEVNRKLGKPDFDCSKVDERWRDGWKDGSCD
B2AR ag: agonists of human beta-2 adrenergic receptor inducing internalization; P07550; Am2.2-beta2AR cells, FAP receptor internalization, flow cytometry; reference of the scale not given here; response, % (concentration not given with the values); 340,000 tested, 0.43% active; AID 504454;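 active = response above a set limit, near 3 SD of response in nonfluorescent compounds, cut at about 42% in these data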;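 note: stock transfer was 100 nL into about 11 µL; a reference agonist was the positive control; negative values mostly stem from fluorescent compounds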
Target sequence (P07550 whole entry, looked up): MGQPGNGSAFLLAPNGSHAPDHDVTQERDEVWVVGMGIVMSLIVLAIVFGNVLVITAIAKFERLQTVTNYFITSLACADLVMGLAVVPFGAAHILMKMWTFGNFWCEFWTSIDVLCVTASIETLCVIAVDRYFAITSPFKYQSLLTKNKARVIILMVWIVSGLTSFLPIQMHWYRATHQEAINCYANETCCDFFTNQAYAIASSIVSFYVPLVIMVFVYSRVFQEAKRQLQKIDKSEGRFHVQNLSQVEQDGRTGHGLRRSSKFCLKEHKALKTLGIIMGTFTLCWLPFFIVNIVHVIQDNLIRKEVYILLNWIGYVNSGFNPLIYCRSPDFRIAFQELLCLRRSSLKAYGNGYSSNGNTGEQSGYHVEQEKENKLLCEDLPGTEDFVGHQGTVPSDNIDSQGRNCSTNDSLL
RanGTP-Imp inh: disruptors of Ran-importin-beta complex formation – biochemical, FRET, CFP-Ran, YFP-importin-beta, homogeneous, primary screen; cell-free CFP-Ran/YFP-importin-beta FRET ratio; inhibition, % (no concentration beside the values); 300,000 tested, 1.1% active; AID 2216;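 active = most replicates above 15%; inconclusive = exactly half above 15%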;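 note: 0% = DMSO wells and 100% = Ran loaded with GDP instead of GTP; wells of about 40 µL received 100 nL stock; the first replicate is given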
Numbers without * were called inactive; u = inconclusive; x = no result given; & = joins results of further samples.

Start of the data: the first three compounds as a preview:
SMILES	LANA-H2B inh	HNF4A DNA FP	Calb FLC	Vif A3G	ALR inh	B2AR ag	RanGTP-Imp inh
OCCSc1nc(-c2cccnc2)nc2ccccc12	-0.8	2.2	-3	29%	x	2	1.5
C=C[C@@H]1c2cc(C)ccc2N(S(=O)(=O)c2ccc(C)cc2)[C@H](c2ccc(OC(C)=O)cc2)C1(C#N)C#N	-7.3	3.0	x	x	-8	2	x
CC(C)(C)CC(=O)Nc1nnc(SCC(=O)N2CCCCC2)s1	3.5	-0.9	-4	x	-7	-3	-0.7

Results, from the first entry:
SMILES	LANA-H2B inh	HNF4A DNA FP	Calb FLC	Vif A3G	ALR inh	B2AR ag	RanGTP-Imp inh
OCCSc1nc(-c2cccnc2)nc2ccccc12	-0.8	2.2	-3	29%	x	2	1.5
C=C[C@@H]1c2cc(C)ccc2N(S(=O)(=O)c2ccc(C)cc2)[C@H](c2ccc(OC(C)=O)cc2)C1(C#N)C#N	-7.3	3.0	x	x	-8	2	x
CC(C)(C)CC(=O)Nc1nnc(SCC(=O)N2CCCCC2)s1	3.5	-0.9	-4	x	-7	-3	-0.7
CCCn1c(SCC(=O)Nc2ccccc2OC)nnc1-c1ccco1	-2.9	0.9	1	x	x	-4	u
N#C/C(C(=O)N1CCOCC1)=C1/SC(Cc2ccc(F)cc2)C(=O)N1c1ccccc1 (stereo not given)	-0.3	1.2	34	x	17	-7	7.8
Cc1ccccc1OCCCn1c(=O)sc2ccccc21	-1.2	-3.5	4	-2%	4	-2	2.4
COc1cc(/C=C2/C(=O)NN(c3cccc(Cl)c3)C2=O)cc(Br)c1O	-5.6	3.6	15	x	98*	-77	6.0
Cc1cccc(OCC(=O)N2CCN(C(=O)Cc3ccccc3)CC2)c1	9.0	2.5	u	0%	x	7	0.1
CCCCN1CC[C@H]2C=CC[C@@H](C(=O)Nc3ccc(Cl)cc3Cl)[C@H]2C1=O	1.2	-2.0	16	x	0	-4	4.5
CC(=O)CCc1ccc(OCC(O)CNCCOc2ccc(C)cc2)cc1 (stereo not given)	-6.8	1.2	1	x	1	-4	2.1
O=C(Nc1ncc(Br)s1)C1CCCN1S(=O)(=O)c1cccc2cccnc12 (stereo not given)	1.0	1.6	-6	0%	29	3	0.9
Cc1ccc(N(CC(=O)NCc2ccc3c(c2)OCO3)C(=O)CCC(=O)Nc2ccccn2)cc1	-8.7	-3.2	-3	x	26	16	2.3
c1ccc2sc(NC3=NCN(Cc4ccc5c(c4)OCO5)CN3)nc2c1	-0.6	-1.8	-18	4%	-5	0	-1.2
CC(C)(C)n1nc2c(c1NC(=O)COc1ccc3ccccc3c1)CS(=O)(=O)C2	-0.5	-2.5	-11	1%	-35	-4	u
COc1cccc(-n2nnc3c(=O)n(CC(=O)NC4CCCC4)cnc32)c1	-0.8	-5.0	18	-2%	-2	-1	-4.8
CCc1ccc(N=c2c([N+](=O)[O-])nn(-c3ccccc3)n2O)cc1	3.8	4.1	-8	21%	-11	5	4.0
COc1cc(C(=O)NCC(=O)NCCCSc2ccccc2)cc(OC)c1OC	-1.0	-1.3	x	-10%	7	-3	x
COc1ccc(C(c2sc3nc(C)nn3c2O)N2CCN(Cc3ccccc3)CC2)cc1OC (stereo not given)	0.2	0.7	3	9%	-57	9	2.9
COc1ccc(CCC(=O)N2CCc3ccccc32)cc1	7.4	3.6	-12	13%	-1	-3	u
COc1ccc(C2C(C#N)=C(N)N(N(C)C)C3=C2C(=O)CC(C)(C)C3)cc1 (stereo not given)	3.3	4.7	9	-1%	21	8	3.4
O=C(Nc1ccc(S(=O)(=O)N2CCCCC2)cc1)c1cnccn1	3.6	1.7	-3	-1%	4	0	u
C/C(=N\OC(=O)c1ccccc1)c1c(C)nc2cc(C)ccn12	-0.3	4.0	2	x	-7	7	1.5
CCc1cccc2c(=O)c(C(=O)NCCN3CCOCC3)c[nH]c12	-5.6	0.3	27	-1%	0	4	-0.9
O=C(C1CC(=O)N(c2ccc(F)cc2)C1)N1CCCCCC1 (stereo not given)	4.6	2.4	-3	u	0	5	-1.9
COc1cc2c(cc1NC(=O)CSc1nc3cc(Cl)ccc3s1)oc1ccccc12	7.4	0.6	9	-6%	-5	-1	4.0

The list continues.
SMILES	LANA-H2B inh	HNF4A DNA FP	Calb FLC	Vif A3G	ALR inh	B2AR ag	RanGTP-Imp inh
O=[N+]([O-])c1ccc(S(=O)(=O)Nc2nnc(C3CCCCC3)s2)cc1	-8.4	-0.2	-9	x	-12	-7	20*
COc1ccc(C(=O)CC(Nc2ccc([N+](=O)[O-])cc2)c2ccc(Cl)cc2)cc1 (stereo not given)	5.7	-1.0	16	3%	-11	13	-1.2
CCN=c1scc(C)n1/N=C/c1ccsc1	-0.2	2.0	-2	24%	99*	5	-1.9
CCCCNc1ccc(C(F)(F)F)cc1S(=O)(=O)NCCc1ccc(F)cc1	x	5.9	x	-1%	x	-9	x
CC1CCCCN1S(=O)(=O)c1ccc(C(=O)Nc2nnc(C3CC3)o2)cc1 (stereo not given)	1.8	-0.1	-1	x	10	8	4.1
O=C(C[n+]1cc2ccccc2c2ccccc21)c1ccccc1	-5.6	0.1	-2	6%	0	11	-2.5
COc1cc(Oc2ccccc2)nc(N)n1	1.4	4.1	-4	x	-3	-5	-3.1
Cc1ccc(-c2nnc(N3CCN(CCO)CC3)c3ccccc23)cc1	1.7	2.4	-2	u	3	-1	-1.8
COc1ccccc1N1CCN(C(=O)/C=C/c2cccs2)CC1	1.9	3.4	2	4%	18	-1	1.0
Cc1ccc2nc(-c3ccccn3)cc(C(=O)Nc3ccc4c(c3)OCO4)c2c1	4.6	1.2	20	x	x	1	1.0
COc1ccc(-c2[nH]ncc2/C=N/NC(=O)c2cc(Br)ccc2O)c(OC)c1	-4.0	-3.2	-21	x	7	3	-0.1
S=C(Nc1cc(Cl)ccc1Cl)Nn1cnnc1	-11	-2.2	-4	0%	x	6	-0.1
COc1ccccc1/C=C\C(=O)NCC(=O)N/N=C(\C)Cc1ccccc1	-0.1	2.5	-5	x	0	-4	3.8
COc1ccc(CCNC(=O)c2cnn(-c3ccc(C)c(C)c3)c2NC(=O)c2ccco2)cc1OC	1.0	0.7	-2	3%&2%	-7	-5	1.7
CCc1ccc(OC)c(S(=O)(=O)N2CCN(C(=O)c3ccco3)CC2)c1	7.6	2.6	-3	x	-1	-7	2.7
CC(Nc1n[nH]c(=O)[nH]c1=O)C(=O)N/N=C/c1cccs1 (stereo not given)	0.4	-1.3	-5	u	-3	-5	u
Cc1cnc(C(=O)OCC(=O)NC(C)c2ccccc2)cn1 (stereo not given)	-0.9	0.3	x	x	-6	2	x
COc1ccccc1C(=O)C1CCCN(Cc2cccc3nccnc23)C1 (stereo not given)	1.6	-1.3	-8	x	-14	5	-2.8
COc1ccc(CN2C(=O)c3ccccc3C2=O)cc1C(=O)O	-1.8	-2.8	-5	5%	x	-1	-0.4
CCOC(=O)c1[nH]c(C)c(C(=O)N2CCOCC2)c1C	5.3	2.0	2	7%	-6	0	-1.2
COc1ccc(N2C(=O)NC(=O)C2=O)cc1	4.4	-0.4	-1	x	1	-2	-2.8
NC(=O)c1ccccc1N/C=C/C(=O)c1ccc(Cl)cc1	3.9	-1.9	1	-2%	17	-15	9.4
O=C1CC(N2CCC(c3nc4ccccc4o3)CC2)C(=O)N1c1ccc(F)cc1 (stereo not given)	0.0	3.1	0	x	-3	-7	-2.7
O=C(Nc1cccnc1N1CCOCC1)c1ccco1	-3.6	0.9	4	3%	1	0	1.8
O=C(NCc1ccccc1)C(=O)Nc1cccc(C(=O)O)c1	-2.8	4.7	-7	16%	-3	3	1.3

Following part
SMILES	LANA-H2B inh	HNF4A DNA FP	Calb FLC	Vif A3G	ALR inh	B2AR ag	RanGTP-Imp inh
COc1ccc(NC(=O)C(=O)NCC2CCCN2S(=O)(=O)c2cccs2)cc1 (stereo not given)	0.9	-1.7	17	2%	3	-11	-3.0
CC(c1ccccc1)N1CCn2c(nc3cc(NS(C)(=O)=O)ccc32)C1 (stereo not given)	-1.5	2.5	109*	9%	x	-1	9.8
CN1C2C=C3C(C#N)=C(N)C(C#N)(C#N)C(c4ccc(Br)cc4)C3C1CC2 (stereo not given)	-3.8	2.0	14	23%	x	7	3.6
Cc1cnc(C(=O)OC(C(=O)c2c[nH]c3ccccc23)c2ccccc2)cn1 (stereo not given)	1.8	-0.3	x	-3%	-1	-5	5.3
Cc1ccc2cc(CN(CCCO)S(=O)(=O)c3cccc4nsnc34)c(=O)[nH]c2c1C	0.3	-2.0	-2	-3%&-12%	-5	-2	2.5
COc1ccc(CC(=O)NNc2ncnc3c2cnn3C)cc1	0.3	-0.1	3	13%	52	-6	0.7
CCCC(C)NC(=O)C1CCN(S(=O)(=O)c2ccccc2)CC1 (stereo not given)	1.3	-1.2	-6	25%	3	4	-2.5
COC(=O)c1sc(=S)n(-c2cc(F)ccc2F)c1N	-11	-1.5	-2	2%	13	2	1.2
Cc1cccc(N2CCN(C(=O)/C=C/c3cccs3)CC2C)c1 (stereo not given)	5.0	-0.1	-31	x	72	12	1.3
CCCC(=O)Nc1ccc(Cl)c(NC(=O)c2ccc(Br)o2)c1	1.6	2.0	3	-2%	1	-12	2.4
COc1ccc(Cl)cc1NC(=O)CSc1nnc(Cc2cccn2C)n1-c1ccc(F)cc1	-0.5	4.3	19	25%	2	7	0.1
COc1ccc(CCNC(=O)CN(c2ccccc2)S(C)(=O)=O)cc1OC	1.4	-3.7	0	0%	-5	21	-3.1
CCN1CCN(C(=O)CSc2cc(=O)n(C)c3ccccc23)CC1	-0.3	-0.6	-19	x	9	-4	-2.6
CCn1c(C)nc2cc(C(=O)NNC(=O)Nc3cccc(Cl)c3)ccc21	5.7	5.8	-16	26%	13	7	0.3
O=C(CCc1nnc(CCCCc2ccccc2)o1)N1CCC(N2CCCC2)CC1	11	2.8	1	8%	-15	-3	0.5
CCOC(=O)c1cc(CC)sc1N1C(=O)CC(Sc2ccccc2C(=O)O)C1=O (stereo not given)	-0.8	-0.1	-14	x	20	-9	x
CN1CCN(c2ccc(NC(=O)COc3ccccc3)cc2Cl)CC1	x	1.2	-2	-2%	x	1	-3.7
CC(=O)c1cccc(NC(=O)COC(=O)COc2ccc(Cl)cc2)c1	0.5	0.5	-16	6%	20	5	0.5
Cc1cc(C)c2c(CC(=O)N3CCCC3)coc2c1	-1.0	3.1	-3	x	-8	6	0.3
O=C1CSC(=S)N1/N=C/c1ccc(Cl)c([N+](=O)[O-])c1	2.1	x	0	x	6	x	7.1
CC1(C)Cc2c(sc3nc4n(c(=N)c23)CCC4)CO1	6.9	10	3	6%	-9	8	-0.1
COCC1=C(C(=O)OC)C(c2cccs2)n2ncnc2N1 (stereo not given)	-2.2	1.9	28	9%	0	1	0.0
CCNC(=O)CN1C(=O)NC2(CCCCCC2)C1=O	-1.4	0.6	-23	3%	-7	-1	x
CN(Cc1ccccc1)C(=O)c1nc2ccccn2c1CN1CCCC1c1nccs1 (stereo not given)	1.5	1.4	2	-3%	x	10	1.0
CSc1ccccc1NC(=O)c1cc2ncc(Br)cn2n1	0.8	-6.8	-2	23%	-2	-6	-3.3
O=C(C=Cc1ccccc1)NCCNC(=O)C=Cc1ccccc1	x	-1.2	x	-2%	x	4	x
Cc1ccn(C(=O)c2cc3c(C)nn(-c4ccccc4)c3s2)n1	4.7	0.4	-18	11%	2	2	-0.5
COC(=O)c1sccc1-n1cccc1C(=O)N1CCOCC1	-2.5	-0.7	0	23%	-3	-7	-0.4
CCOc1cc(C2C(C(=O)N3CCOCC3)=C(C)NC3=C2C(=O)CCC3)ccc1O (stereo not given)	12	4.7	1	0%	-4	5	2.5
CC(C)CN1C(=O)C(=O)N(CC(=O)NC2CCCc3ccccc32)C1=O (stereo not given)	-1.5	-1.1	-1	1%	-1	-14	-2.1
